Compound activity: PubChem BioAssay, National Center for Advancing Translational Sciences (NCATS)
RE007 growth inh: less growth of the S. pombe RE007 Vpr strain. S. pombe RE007 Vpr strain, BacTiter-Glo ATP luminescence, 24 h; control for the full effect not named in the record. Potency, µM (highest dose often 92.2 µM), without a hit: top-dose activity change, negative = less growth. 360,000 compounds, 0.21% hits. AID 651644; active = well fitted falling curve with a large enough effect; inconclusive = small, poorly fitted or top-dose-only effect; inactive = no such curve, though single readings can be large or run the other way;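 also: % is scaled to controls: 0 for no effect and ±100 for the full control effect; nearly all actives have a fitted effect of over 50% in size; the assay follows cell death caused by Vpr and the record does not say whether a fall means rescue or toxicity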
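Fission yeast RE007 carrying one integrated HIV-1 vpr copy, seeded at OD 0.01 in PMG+AL medium with 23 nL pinned compound. Grown 24 h at 30 degrees; viability read by BacTiter-Glo luminescence after 5 min.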
2A StopGo: FMDV 2A StopGo reporter, luciferase signal | human cells with a luciferase reporter of 2A StopGo recoding; control for the full effect not named in the record | Potency, µM (highest dose often 57.9 µM), inactives show at the highest dose signal change, negative = less light | 410,000 compounds, 1.2% hits | AID 1159524; active = well fitted falling curve with a large enough effect; inconclusive = small, poorly fitted or top-dose-only effect; inactive = no such curve, though single readings can be large or run the other way; tested in HEK293T cells; also: % is scaled to controls: 0 for no effect and ±100 for the full control effect; nearly all actives have a fitted effect of over 45% in size; luciferase light after 4 h
SARS PLP yeast: blocks SARS-CoV papain-like protease in a yeast assay; S. cerevisiae expressing SARS-CoV PLpro, growth rescue; control for the full effect not named in the record; 330,000 compounds, 0.19% hits; Potency, µM (highest dose often 32.9 µM), without a hit: top-dose activity, positive = growth rescue; AID 485353; active means well fitted rising curve with a large enough effect; inconclusive means small, poorly fitted or top-dose-only effect; inactive means no such curve, though single readings can be large or run the other way; also: 0% is about no effect; nearly all actives have a fitted effect of over 55% in size; growth read by luminescence after 48 h
Numbers without * were called inactive; ? = inconclusive; [ ] = another dose, or the depositor's remark. Potency is read from the fitted curve at half-maximal effect. A portion of the library, so the mix of outcomes need not match the whole.

SMILES | RE007 growth inh | 2A StopGo | SARS PLP yeast
Cc1ccc(S(=O)(=O)N2CCOCC2)cc1NC(=O)c1ccc(F)cc1F | 3.5% | 2.1% | -6.2%
Cc1ccc(S(=O)(=O)N2[C@@H](c3ccccc3)C(C(=O)O)=CC[C@H]2c2ccc(C(C)C)cc2)cc1 | 1.8% | 13.6% | -3.0%
Cc1cc(C)n(CC(=O)NN)n1 | -4.8% | 4.3% | 0.6%
COc1ccc(Cl)cc1NC(=S)NCCCN1CCCC1=O | -1.9% | 3.5% | -0.9%
CC(=O)N1CCN(S(=O)(=O)c2cccc(C(=O)NC3CCCC3)c2)CC1 | -3.4% | 37.8%[activator] | -19.7%
C[C@H](CO)N1C[C@H](C)[C@@H](CN(C)S(=O)(=O)c2cn(C)cn2)Oc2c(NS(=O)(=O)c3cccs3)cccc2C1=O | 6.5% | 7.6% | 1.2%
COc1ccc(CCNC(=O)CNC(=O)c2ccc(Br)o2)cc1OC | -6.7% | -0.9% | -4.3%
CC(C)(C)OC(=O)N[C@H]1C=C[C@@H](OC(=O)CC(=O)OCC(F)(F)F)C1 | -10.2% | -8.3% | -1.4%
CCN(CC)c1ccc(/C=N/NC(=O)c2ccc([N+](=O)[O-])cc2)cc1 | 17.3% | 9.5% | 7.0%
COc1cc(OC)cc(-c2sc3ccc(OC)cc3c2-c2ccc3cc[nH]c3c2)c1 | -3.8% | -0.6% | 2.2%
O=[N+]([O-])c1ccccc1S(=O)(=O)N1CCSCC1 | 3.9% | -20.4% | -12.5%
C/C(=N\NC(=O)c1ccc(-n2cnnn2)cc1)c1ccc(Cl)cc1 | -2.6% | -3.3% | 1.1%
CCOc1ncccc1C(=O)OC(C)C(=O)Nc1ccc(Cl)cn1 (configuration not stated) | -2.1% | -7.3% | -4.4%
CC(C)(C)OC(=O)C[C@@H]1C/C=C\C[C@@H](CC(=O)N[C@@H](CO)Cc2ccccc2)C(=O)NC[C@@H](c2ccccc2)OC1=O | -11.7% | ? | 0.7%
NC(=O)C1(c2ccccc2)CCCN1C(=O)c1ccccc1Br (configuration not stated) | -11.2% | -13.4% | 0.1%
Nc1cc(C(=O)OCC(=O)c2ccc(CC(=O)N3CCOCC3)s2)ccc1Cl | 16.7% | -23.1% | 1.9%
Cn1ccnc1Sc1ccccc1[N+](=O)[O-] | -0.6% | -14.2% | 6.3%
C=CC[C@@H](CC(=O)N[C@@H](CO)Cc1ccccc1)C(=O)N[C@H](C)COC(=O)[C@@H](CC=C)Cc1ccc(F)cc1 | 5.4% | -5.1% | 8.0%
Nc1nc(N)nc(-c2cccc(Cl)c2Cl)n1 | 5.6% | -1.0% | -24.6%
Nc1nonc1-n1nnc(C(=O)N/N=C/c2cccc(Cl)c2)c1CSc1ccc(Cl)cc1 | -3.6% | -8.8% | -5.4%
CCN(C[C@H]1N[C@@](Cc2ccccc2)(C(=O)OC)[C@H]2C(=O)N(C)C(=O)[C@@H]12)S(=O)(=O)c1ccc(OC(F)(F)F)cc1 | -11.6% | -13.6% | -2.6%
CCOc1ccc(NS(=O)(=O)c2cc(C(=O)NCCCN3CCOCC3)ccc2C)cc1 | -23.1% | 38.7%[activator] | 1.0%
N#Cc1ccccc1OCC(=O)NNC(=O)CNC(=O)c1cccc(Br)c1 | 9.3% | -23.6% | 0.6%
c1ccc(-n2cnc3ccccc32)cc1 | -9.6% | 21.9% | 5.4%
O=C(COC(=O)c1ccccc1Br)NC(=O)NCc1ccccc1 | -0.8% | -1.7% | -2.3%
SMILES | RE007 growth inh | 2A StopGo | SARS PLP yeast
COc1ccc(-c2cc3ccccc3cn2)cc1 | -16.0% | -2.4% | -0.6%
COc1cccc(NC(=O)CN(c2ccccc2OC)S(=O)(=O)c2cccs2)c1 | -1.7% | -26.2% | 2.9%
CCN(C[C@H]1N[C@@](CC)(C(=O)OC)[C@H]2C(=O)N(C)C(=O)[C@@H]12)S(=O)(=O)c1ccc(C(C)(C)C)cc1 | 37.9% | -27.7% | 2.5%
COCc1ccc(-c2c(-c3ccsc3)oc(=O)c3cc(OC)c(OC)cc23)cc1 | 18.4% | 2.6% | 3.5%
C#CCOCCOCCOCCNc1nc(N2CCN(C(=O)[C@H](CCCCN)n3cc([C@@H](N)CC(N)=O)nn3)CC2)nc(N2CCN(C(=O)[C@H](CCCCN)n3cc([C@@H](N)CC(N)=O)nn3)CC2)n1 | 3.2% | 16.6% | -17.9%
CCCCCCC(NC(=O)Cc1ccc2ccccc2c1)C(=O)O (configuration not stated) | 0.4% | -12.7% | 2.1%
COc1ccc2sc(N(CCN(C)C)C(=O)c3cc(Cl)sc3Cl)nc2c1 | -12.1% | -12.4% | -2.0%
O=C(N/N=C/c1oc(O)c2ccccc12)c1ccccc1 | 5.5% | 33.8%[activator] | -7.2%
COc1ccc(CN(C)C(C)C(=O)N(C)CC(=O)Nc2ccc(C)cc2)cc1F (configuration not stated) | 3.0% | -11.1% | 1.8%
COC(=O)[C@]1(Cc2ccccc2)N[C@H](CN(C)C(=O)COc2ccccc2)[C@@H]2C(=O)N(C)C(=O)[C@@H]21 | 1.0% | -12.6% | 5.4%
CN(C(=O)c1ccc(NC(=O)Cc2cccc([N+](=O)[O-])c2)cc1)C1CC1 | -12.1% | -0.1% | -2.4%
CN(Cc1ccccc1F)C(=O)CN1CCN(S(=O)(=O)c2ccc3c(c2)OCCCO3)CC1 | -10.4% | -27.0% | -7.9%
CCOc1ccc2ncc(C(=O)c3ccc(OC)cc3)c(N3CCN(CC)CC3)c2c1 | -4.9% | -1.9% | 3.5%
CC(C)(C)OC(=O)NNC(=O)NC12CC3CC(CC(C3)C1)C2 | 17.1% | -19.7% | 0.4%
CN(CC(=O)NCC1CCCCC1)CC(=O)Nc1ccc(F)cc1 | -3.8% | -11.7% | 0.6%
O=C1c2cc(O)c(O)cc2S(=O)(=O)C1c1ccccc1 (configuration not stated) | 8.0% | -7.1% | -3.1%
C/C(=N/Nc1ccnc2cc(Cl)ccc12)c1ccc(N)cc1 | 3.0% | 29.4% | -5.0%
O=C1N[C@H](Cc2ccccc2)CO1 | -2.5% | -23.8% | -1.1%
Cc1cccc(C)c1NC(=O)C1(C)c2cccc[n+]2CC(=O)N1Cc1cccs1 (configuration not stated) | -8.8% | -2.6% | ?
CC(=O)c1cccc(NC(=O)CN2C(=O)C(=O)N(Cc3ccco3)C2=O)c1 | -9.3% | -11.4% | -0.1%
COc1ccc(OCc2nnc(SCC(=O)Nc3cccc(C(C)=O)c3)o2)cc1 | 4.3% | 1.6% | 0.3%
CC(C)(C)CNC(=O)c1cccc2c1C(=O)c1ccc(N3CCCC3)cc1S2(=O)=O | -1.8% | -28.1% | -4.5%
O=C(O)CCC(=O)OCCc1cc2ccccc2c(=O)o1 | -11.3% | 1.9% | 6.8%
C/C=C/C1=CC(=O)C[C@H](c2ccc(Cl)cc2)C1 | -4.6% | 0.0% | 1.9%
CCCOc1ccc(-c2cn3ccccc3n2)cc1 | ? | -54.1% | -18.7%
SMILES | RE007 growth inh | 2A StopGo | SARS PLP yeast
CCCCN1CC(=O)N2[C@H]3c4cc(Cl)ccc4OC[C@@H]3[C@H](c3ccccc3)[C@]2(C)C1=O | 6.4% | -28.9% | 3.5%
O=C(COc1cc(F)ccc1[N+](=O)[O-])Nc1cccc(S(=O)(=O)NC2=NCCC2)c1 | -7.3% | 61.6%[activator] | 1.1%
N/C(=N/O)c1ccccc1N1CCC(Cc2ccccc2)CC1 | 9.5% | 52.4%[activator] | -12.8%
C#CCOCCOCCOCCNc1nc(N2CCN(C(=O)CCCCCCCCCCNC(=O)[C@H]([C@@H](C)CC)n3cc(CCCCCN)nn3)CC2)nc(N2CCN(C(=O)CCCCCCCCCCNC(=O)[C@H](CO)n3cc(CCCCCN)nn3)CC2)n1 | 27.2% | -2.1% | -2.4%
Cn1cnc(C(=O)N2CCN(c3ccccc3)CC2)c1C(=O)N1CCN(c2ccccc2)CC1 | 21.6% | -21.3% | 4.4%
O=C(COC(=O)/C=C/c1cccc(Cl)c1)Nc1cccc(S(=O)(=O)NC2=NCCC2)c1 | 7.2% | -18.4% | -0.5%
O=c1c(Cl)c(NCc2ccco2)cnn1C12CC3CC(CC(C3)C1)C2 | -3.2% | 14.4% | 1.9%
CC[C@@]1(C(=O)OC)N[C@H](CN(C)C(=O)NC(C)C)[C@@H]2C(=O)N(C)C(=O)[C@@H]21 | 7.5% | -14.2% | -4.6%
Cc1cccc(C)c1NC(=O)CN1C(=O)C2CC=CCC2C1=O (configuration not stated) | -9.8% | -7.3% | 4.4%
COc1cc(CCC(=O)OCC(=O)Nc2ccccc2C#N)cc(OC)c1OC | 7.4% | -17.3% | 2.1%
COC(=O)[C@]1(Cc2ccccc2)N[C@H](c2ccc(-c3ccccc3)cc2)[C@@H]2C(=O)N(C)C(=O)[C@@H]21 | -0.7% | -28.4% | -5.0%
COc1ccc(S(=O)(=O)N2CCCCC2)cc1NC(=O)CNc1ccccc1C(C)=O | 22.4% | -25.0% | -14.9%
O=C(COC(=O)c1ccccc1Br)NCC1CCCO1 (configuration not stated) | 5.6% | 12.1% | -2.0%
CC(C)=NNc1cc([N+](=O)[O-])cc2c1C(=O)N(C)S2=O (configuration not stated) | -1.2% | 14.1% | 1.5%
COc1cc2c(cc1OC)[C@@H](NC(=O)c1ccc(C(F)(F)F)cc1)[C@H](OCc1ccccc1)C2 | -10.2% | -23.4% | 8.0%
Cc1ccc(C(=O)c2c3ccccc3[n+]([O-])n2CCC(=O)O)cc1 | 13.7% | 62.8%[activator] | -12.9%
CN(CC(=O)OCC(=O)NC1CCCC1)S(=O)(=O)c1ccc(Cl)cc1 | 8.8% | ? | 4.2%
CCCSc1nnc(NC(=O)CSc2nc3[nH]c(=O)cc(O)c3s2)s1 | -6.6% | -12.2% | 2.9%
O=C1CCC/C=C\C[C@H](CC(=O)N(CCO)Cc2ccccc2)C(=O)N2CCC[C@@H]2CO1 | 9.0% | -7.9% | 2.2%
COc1cc(CC(=O)OCC(=O)NC2CCCC2)cc(OC)c1OC | 3.4% | -7.5% | -2.9%
NC(=O)NC(CC(=O)NNC(=O)c1ccccn1)c1ccc(Cl)cc1 (configuration not stated) | 7.8% | -2.4% | -2.1%
CN(CC(=O)Nc1ccccc1F)CC(=O)Nc1ccc(F)c(F)c1F | 7.9% | 2.5% | -0.7%
NS(=O)(=O)c1ccc(N2N=C(c3ccccc3)CC2c2cccc(Br)c2)cc1 (configuration not stated) | -5.5% | -22.6% | -7.6%
O=C(CNC(=O)c1ccccc1)NCC(c1ccco1)N1CCCC1 (configuration not stated) | -1.7% | 10.1% | 13.5%
